# INS promoter inh = TRM-6 insulin promoter activity inhibition | inhibition, % at 2 µM | hit rate 0.9% among 130,000 | TRM-6 cells (human fetal islet line), insulin promoter-eGFP reporter, imaging; reporter expression induced with tamoxifen;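 active = inhibition above the mean plus 3 SD, with well images judged a real hit on visual review, cut at about 60% in these data, passing the limit was not always enough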
# HSV replic up = increases HSV replication in cells; hit rate 0.005% among 220,000; HSV replication augmentation in cells, fold increase; maximum fold increase;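 active = peak rise of 1.5-fold or more in the series; tested in PC3 cells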;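 note: first round at 10 µM; read as green reporter fluorescence; hits show the peak of a series up to 25 µM; 1 = signal of infected wells without compound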
# PKD1 inh = inhibitors of human PKD1 kinase; PKD1 kinase fluorescence polarization assay; inhibition, %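 (about 10 µM by stock and volumes)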; hit rate 0.056% among 200,000;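 active = inhibition of 50% or more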;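 note: controls were vehicle for no effect and a reference inhibitor for full effect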
# RGS16-Gao HTS = RGS16-Galphao interaction regulator (human); O15492+P09471; bead-based flow cytometry RGS16-Galphao binding, fluorescence; actives lie on both sides; binding response (% of control), % at 10 µM; hit rate 0.38% among 220,000; AID 1441;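 active = below 25% or above 175%, edge rows of some plates excepted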;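 note: Galphao activated by GDP with aluminum fluoride before binding; 100% = wells without compound and 0% = beads without RGS; some results beyond the cut were filed as inactive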
# Target sequence (O15492 whole entry, looked up): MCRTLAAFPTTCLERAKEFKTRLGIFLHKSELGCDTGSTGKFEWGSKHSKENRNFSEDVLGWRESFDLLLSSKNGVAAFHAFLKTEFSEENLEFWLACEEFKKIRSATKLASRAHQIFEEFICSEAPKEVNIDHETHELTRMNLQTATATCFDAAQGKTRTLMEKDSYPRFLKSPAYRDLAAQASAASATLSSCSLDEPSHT
# Target sequence (P09471 whole entry, looked up): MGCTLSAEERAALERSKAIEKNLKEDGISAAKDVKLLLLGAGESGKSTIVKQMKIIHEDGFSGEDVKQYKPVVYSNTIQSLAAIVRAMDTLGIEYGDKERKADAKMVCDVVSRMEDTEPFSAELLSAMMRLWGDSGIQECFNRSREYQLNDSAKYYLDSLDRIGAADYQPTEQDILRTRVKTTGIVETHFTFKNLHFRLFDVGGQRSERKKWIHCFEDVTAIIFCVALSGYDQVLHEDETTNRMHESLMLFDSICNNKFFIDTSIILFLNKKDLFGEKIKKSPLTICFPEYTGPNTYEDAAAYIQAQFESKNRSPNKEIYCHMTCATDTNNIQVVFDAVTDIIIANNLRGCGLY
# GALR2 ag = GALR2 (human) receptor agonism; activation, %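 (tested at 5 µM)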; O43603; hit rate 0.48% among 140,000; GALR2-expressing cells, agonist activation read-out;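 active = above mean plus 3 SD of all compounds, about 5% in these data, not always enough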;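 note: 0% = vehicle buffer wells and 100% = reference agonist at full effect; tested in CHO reporter cells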
# Target sequence (O43603 whole entry, looked up): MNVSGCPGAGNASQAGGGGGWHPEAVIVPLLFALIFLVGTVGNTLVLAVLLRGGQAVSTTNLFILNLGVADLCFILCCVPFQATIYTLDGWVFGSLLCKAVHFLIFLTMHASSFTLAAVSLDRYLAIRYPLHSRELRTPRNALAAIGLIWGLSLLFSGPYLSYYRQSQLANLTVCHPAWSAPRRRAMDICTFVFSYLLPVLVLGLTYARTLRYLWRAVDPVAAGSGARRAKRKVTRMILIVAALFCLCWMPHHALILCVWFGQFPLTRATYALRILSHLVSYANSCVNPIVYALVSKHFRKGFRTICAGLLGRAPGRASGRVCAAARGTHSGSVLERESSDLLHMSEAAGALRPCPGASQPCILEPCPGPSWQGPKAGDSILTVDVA
# INS promoter inh cell count = recorded beside INS promoter inh, whose call it bears; normalized cell count, %; measured here: cell count, toxicity; reference of the scale not given here;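 cells exposed to compound for 48 h; stained nuclei by imaging scaled within each plate; lower means fewer cells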
# HSV replic up primary fold = recorded beside HSV replic up, whose call it bears; fold increase; compound at 10 µM; measured here: primary screen fold increase 10 uM; tested in PC3 cells;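 GFP signal in the first replicate; 1 = infected wells without compound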
# Active calls of the source: *; i = inactive; nt = no result given; [ ] = remark or other dose.
# Each structure is followed by: RGS16-Gao HTS, INS promoter inh, HSV replic up primary fold, HSV replic up, PKD1 inh, INS promoter inh cell count, GALR2 ag
CC(O)C(NS(=O)(=O)c1ccc(Cl)cc1)C(=O)OCc1cc([N+](=O)[O-])cc2c1OCOC2 (configuration not stated)
  102, nt, 0.95, i, -5, nt, nt
CCOC(=O)c1ccc(NC(=S)Nc2ccc(C)cc2)cc1
  99, nt, 0.95, i, -2, nt, nt
CN(CC(=O)N1CCN(c2ccccc2)CC1)S(=O)(=O)c1cccs1
  107, 6, 0.98, i, -6, 65, nt
N#C/C(=C\c1ccc(C#N)cc1)C(=O)c1ccccc1
  88, nt, 1, i, nt, nt, nt
CC(=O)N1NC(=Nc2ccccc2)SC1(C)C
  84, nt, 1, i, 0, nt, nt
NC1=NC[C@H](Cc2ccc(O)cc2)N1CCC12CC3CC(CC(C3)C1)C2
  106, nt, 0.85, i, nt, nt, nt
Cc1ccc(-c2nnc(CSc3nnc(COc4ccccc4)n3-c3ccccc3)o2)cc1
  125, -12, 0.97, i, -12, 87, -2.1
CCCn1nc(NC(=O)c2cccs2)c2cc3cc(C)ccc3nc21
  98, nt, 0.61, i, nt, nt, nt
CCN1CCN(CCCCOc2ccccc2F)CC1
  101, nt, 0.92, i, -3, nt, -0.2
Cc1ncc(CSc2nc3ccccc3[nH]2)c(N)n1
  90, -31, 0.99, i, -4, 159, 0.3
CC(NC(=O)Nc1ccc2c(c1)OCO2)C1CCCO1 (configuration not stated)
  106, -14, 0.91, i, 1, 102, -1.5
COc1ccc(-c2cnc(N)n2CC2CCCO2)cc1 (configuration not stated)
  93, -13, 0.92, i, -2, 133, 5.2
O=C(CN1CCC(n2nnc3cc(C(F)(F)F)ccc32)CC1)NNC(=O)c1ccco1
  100, nt, 1, i, 3, nt, nt
O=C(O)C1CCCN1C(=O)c1cccs1 (configuration not stated)
  89, nt, 1.2, i, 2, nt, -0.8
COc1ccc(NCN2C(=O)C3C4C=CC(C4)C3C2=O)cc1 (configuration not stated)
  104, -21, 0.65, i, 2, 90, nt
Cc1ccc(-n2c(CCc3nc4ccccc4[nH]3)n[nH]c2=S)cc1
  109, 29, 0.9, i, 0, 69, nt
CC(/C=C1\SC(=S)N(NS(=O)(=O)c2ccccc2)C1=O)=C\c1ccccc1
  97, nt, 1.1, i, nt, nt, nt
O=C(N/N=C\c1ccc(-c2ccc([N+](=O)[O-])cc2)o1)C1COc2ccccc2O1 (configuration not stated)
  104, -48, 1, i, -11, 140, -0.1
COc1ccc2cc3cc(C(=O)NCC4COc5ccccc5O4)oc3nc2c1 (configuration not stated)
  106, -44, nt, nt, -6, 122, -2.1
CCCC(=O)Nc1ccc(C(=O)Nc2nnc(COC)s2)cc1
  105, nt, 0.7, i, 4, nt, 0.6

# (more compounds)
# Each structure is followed by: RGS16-Gao HTS, INS promoter inh, HSV replic up primary fold, HSV replic up, PKD1 inh, INS promoter inh cell count, GALR2 ag
COc1ccc(NCc2nnc(SCC(=O)Nc3nc(-c4ccccc4)cs3)n2-c2ccccc2)cc1
  106, 12, 0.79, i, 1, 186, 3.7
O=C(CCCCCNc1nc(=S)[nH]c2ccccc12)NCCc1ccc(Cl)cc1
  99, -29, 0.9, i, 8, 100, nt
COc1ccc2[nH]c(C(=O)O)c(NS(=O)(=O)c3ccc(OC)c(OC)c3)c2c1
  83, -29, 0.93, i, 4, 95, -2.7
NNC(=O)C1=NOC(CNc2ncc(C(F)(F)F)cc2Cl)C1 (configuration not stated)
  81, 11, 1, i, 2, 106, -0.3
COc1cc(C(=O)NC2CCCNC2)cc(OC)c1OC (configuration not stated)
  100, nt, 0.66, i, nt, nt, nt
O=C(N/N=C/c1ccccc1Cl)c1cccc(F)c1
  100, -30, 0.91, i, 4, 107, -2.0
O=C(O)CCCCCN=Cc1c(O)c2ccccc2oc1=O
  102, 33, 0.98, i, -3, 105, nt
C=CC(COCc1ccccc1)N(Cc1ccccc1)S(=O)(=O)c1ccccc1Br (configuration not stated)
  99, nt, 1.3, i, nt, nt, nt
COc1ccc(-c2cc(C#N)nc(N3CCNCC3)n2)cc1
  122, 11, 0.59, i, 15, 123, -0.4
Cc1cc2ncn(C(=O)c3c(-c4c(Cl)cccc4Cl)noc3C)c2cc1C
  116, nt, 1, i, 4, nt, -3.0
O=C(CSc1nc(C2CC2)nc2ccccc12)N1c2ccccc2Sc2ccccc21
  298, 42, nt, nt, 10, 139, -0.2
Cc1ccccc1-c1ncc(CN2CCN(C3CCCCC3)C(CCO)C2)cn1 (configuration not stated)
  103, -25, 0.98, i, 1, 96, nt
COc1ccc(CCN/C=C2/CC(=O)NC2=O)cc1OC
  90, 0, 0.98, i, -6, 150, -0.9
Cc1nc2ccc(NC(=O)COc3ccccc3C)cc2s1
  104, -22, 0.89, i, -2, 164, nt
CCN(CCC(=O)Nc1cc([N+](=O)[O-])ccc1OC)Cc1ccccc1
  105, 0, nt, nt, -9, 64, -0.3
CCCCCCCCCCS(=O)(=O)N/N=C/c1ccc([N+](=O)[O-])cc1
  100, -50, 0.83, i, -7, 139, -2.7
COc1ccc(-n2c(=O)[nH]cc(C(=O)N3CCc4ccccc43)c2=O)cc1
  105, 12, 0.69, i, -5, 128, -2.9
Cc1ccc(C)c(NC(=O)Cc2csc(-c3ccccc3)n2)c1
  111, 0, 0.96, i, 5, 137, -1.3
Cc1cc(NC(=O)c2cccc(Oc3ccccc3)c2)n[nH]1
  101, nt, 1, i, -8, nt, nt
COc1ccccc1C(=O)Nc1nc2ccc(S(C)(=O)=O)cc2s1
  102, 43, 1.1, i, -6, 114, -0.9

# Looked up one by one from above (seven):
# Each structure is followed by: RGS16-Gao HTS, INS promoter inh, HSV replic up primary fold, HSV replic up, PKD1 inh, INS promoter inh cell count, GALR2 ag
CCN(CCC(=O)Nc1cc([N+](=O)[O-])ccc1OC)Cc1ccccc1
  105, 0, nt, nt, -9, 64, -0.3
O=C(O)C1CCCN1C(=O)c1cccs1 (configuration not stated)
  89, nt, 1.2, i, 2, nt, -0.8
Cc1ccc(C)c(NC(=O)Cc2csc(-c3ccccc3)n2)c1
  111, 0, 0.96, i, 5, 137, -1.3
CC(/C=C1\SC(=S)N(NS(=O)(=O)c2ccccc2)C1=O)=C\c1ccccc1
  97, nt, 1.1, i, nt, nt, nt
COc1ccc(-c2cnc(N)n2CC2CCCO2)cc1 (configuration not stated)
  93, -13, 0.92, i, -2, 133, 5.2
Cc1cc(NC(=O)c2cccc(Oc3ccccc3)c2)n[nH]1
  101, nt, 1, i, -8, nt, nt
Cc1cc2ncn(C(=O)c3c(-c4c(Cl)cccc4Cl)noc3C)c2cc1C
  116, nt, 1, i, 4, nt, -3.0

# The results go on.
# Each structure is followed by: RGS16-Gao HTS, INS promoter inh, HSV replic up primary fold, HSV replic up, PKD1 inh, INS promoter inh cell count, GALR2 ag
CCC(C)Nc1nc2c(c(=O)n(C)c(=O)n2C)n1Cc1cccc(C)c1 (configuration not stated)
  98, -14, 1, i, -11, 167, -1.1
O=C(O)c1cn(-c2ccc(F)cc2)c(=O)c2ccccc12
  100, nt, 1, i, -6, nt, nt
CCOC(=O)c1[nH]c2cc(OC)c(OC)cc2c1NC(=O)C(C)N1CCN(Cc2ccccc2)CC1 (configuration not stated)
  105, 38, 1, i, 3, 149, -1.5
Cc1ccc(OCC(O)CN2CCN(Cc3ccc4c(c3)OCO4)CC2)cc1C (configuration not stated)
  107, 8, nt, nt, -2, 136, 0.8
O=C(O)/C=C/c1cn(-c2ccccc2)nc1-c1cccs1
  96, nt, 1.1, i, 2, nt, nt
Cc1ccc(S(=O)(=O)Nc2ccc3c(c2)OCCO3)cc1
  101, nt, 0.99, i, -5, nt, nt
O=C(CCSCc1ccccc1F)NCc1cccs1
  99, 40, 0.93, i, -1, 90, nt
COc1ccc(NC2c3ccccc3C(=O)N2Cc2ccccc2Cl)cc1OC (configuration not stated)
  100, nt, 0.77, i, nt, nt, nt
CCCCN(C)C1=Nc2cccc3cccc1c23
  99, 75*, nt, nt, 0, 126*, -3.0
Cc1c(Cl)c([N+](=O)[O-])nn1CCCC(=O)N(Cc1ccccc1)Cc1ccccc1
  103, -23, 1.1, i, -14, 116, -0.1
COc1nc(N(CC(N)=O)S(=O)(=O)c2ccccc2)nc(C)c1Cl
  30, 8, 0.97, i, 9, 113, -0.3
O=C(NC12CC3CC(CC(C3)C1)C2)c1cc([N+](=O)[O-])ccc1N1CCOCC1
  104, nt, 0.95, i, 0, nt, nt
Cc1ccc(C(=O)N2c3ccccc3NC(=O)C2C)cc1 (configuration not stated)
  107, 56, 1, i, -6, 164, nt
Cc1nnc(Sc2cc(C(=O)NCc3ccco3)c3ccccc3n2)s1
  77, nt, 0.98, i, 3, nt, -0.7
O=C1OC(c2ccccc2)=N/C1=C\C=C\c1ccco1
  104, nt, 1, i, -3, nt, nt
CCOc1nc(SC(C(C)=O)C(=O)Nc2ccccc2)nc(N(C)C)n1 (configuration not stated)
  84, 8, 1.1, i, -11, 142, -2.5
Cc1nc2ncnn2c(Nc2ccc3c(c2)OCCO3)c1C
  nt, -1, 0.86, i, 8, 181, 0.0
Cn1c(=O)c2c(n(C)c1=O)=NC1(CCCCC1)ON=2
  110, nt, 1.1, i, -4, nt, -1.1
COC(=O)COc1ccc(S(=O)(=O)N2CCc3ccccc3C2)cc1
  102, 22, 0.74, i, 20, 91, -0.7
COc1ccccc1C(CC(=O)Nc1ccc(C)c(C)c1)c1ccc(OC(C)C)cc1 (configuration not stated)
  197*[activator], 15, 1.1, i, -4, 77, -1.6

# The listing continues:
# Each structure is followed by: RGS16-Gao HTS, INS promoter inh, HSV replic up primary fold, HSV replic up, PKD1 inh, INS promoter inh cell count, GALR2 ag
COc1cccc(/C=N/NC(=O)CC2C(=O)NN=C2C)c1OC (configuration not stated)
  94, 19, 0.86, i, 4, 132, -0.2
Cc1ccc(NC(=O)c2cc(C)nn2-c2ccccc2)cc1
  111, nt, 0.86, i, -4, nt, -1.7
Cc1[nH]n(-c2ccccc2)c(=O)c1N=Nc1ccccc1O
  97, nt, nt, nt, 6, nt, nt
Cn1c(-c2ccc(F)cc2)cnc1SCC(=O)Nc1ccccc1
  113, 50, 0.84, i, 7, 72, nt
COc1ccc(C(CC(=O)O)NC(=O)OC(C)(C)C)cc1 (configuration not stated)
  99, 30, 0.98, i, -3, 69, -0.6
COC(=O)c1ccc(CSc2nnc(NC(=O)C3CC(=O)N(Cc4ccc(C)cc4)C3)s2)cc1 (configuration not stated)
  99, 27, 1.1, i, 3, 106, -0.9
Cc1cc(C)n2nc(SCCCC(=O)c3ccccc3)nc2n1
  83, -8, 1, i, -5, 52, nt
COC(=O)c1ccc(N2C(=O)CC(N3CCN(c4ccccc4)CC3)C2=O)cc1 (configuration not stated)
  nt, 46, 0.9, i, -4, 125, 0.5
Cc1onc(-c2ccccc2Cl)c1C(=O)Nc1ccccc1C(=O)NC(C)C
  102, nt, 0.79, i, -5, nt, -2.1
COc1cccc(CN2CCN(C(=O)CCc3nnc(C4CCCCC4)o3)CC2=O)c1
  115, nt, 0.91, i, nt, nt, nt
CCOc1cc(C2C3=C(CCCC3=O)Nc3nc(C(=O)OC)nn32)ccc1OC (configuration not stated)
  101, 28, 1, i, -7, 52, -2.2
CN(C)c1cc(-c2ccc(F)cc2)oc(=O)c1Cl
  91, nt, 1.3, i, nt, nt, nt
Cc1nn(C2CCS(=O)(=O)C2)c(Cl)c1/C=C/C(=O)OCC(=O)c1c[nH]c2ccccc12 (configuration not stated)
  37, 6, 0.88, i, -8, 104, 0.5
O=C(C1CCCO1)N1CCN(C(=S)Nc2ccc(Cl)cc2Cl)CC1 (configuration not stated)
  126, nt, 1, i, -3, nt, -1.2
CCn1c(SCC(=O)N2CCCc3ccccc32)nc2cccnc21
  100, -3, 1, i, -8, 80, -0.5
CCCc1nnc(NC(=O)CCC(=O)Nc2ccc(F)cc2)s1
  100, 29, 0.99, i, -13, 81, -4.8

# Record cards, as listed above:
# COc1ccccc1C(CC(=O)Nc1ccc(C)c(C)c1)c1ccc(OC(C)C)cc1 (configuration not stated) across the screens: RGS16-Gao HTS: 197*[activator]; INS promoter inh: 15; HSV replic up primary fold: 1.1; HSV replic up: i; PKD1 inh: -4; INS promoter inh cell count: 77; GALR2 ag: -1.6
# CCOc1nc(SC(C(C)=O)C(=O)Nc2ccccc2)nc(N(C)C)n1 (configuration not stated) across the screens: RGS16-Gao HTS: 84; INS promoter inh: 8; HSV replic up primary fold: 1.1; HSV replic up: i; PKD1 inh: -11; INS promoter inh cell count: 142; GALR2 ag: -2.5

# Screening results as filed in PubChem.

# The order is random, and some 1.3% of all compounds hit somewhere here.
